From PubChem BioAssay
UUG fidelity = modulators of yeast start codon fidelity, primary screen, whole organism, S. cerevisiae, single point, plate reader; S. cerevisiae UUG-firefly luciferase reporter, luminescence/redox ratio; 0.13% of 350,000 active; activity score, % at 18.7 µM; AID 602363, 2012;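 active = replicate mean at a twofold rise or more, about +100% in these data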;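 also: firefly luciferase made from a UUG start codon reports start codon fidelity; reporter light over untreated wells divided by growth signal over untreated wells; some hits fall short of that in this replicate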
HIV Env fusion = inhibitors of HIV-1 Env-driven cell-cell fusion, primary screen, HeLa-JRFL effector, CEM21 target cells, luciferase; inhibition, % at 12.3 µM; 1.1% of 360,000 active; AID 651610, 2012;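 active = mean replicate inhibition score of at least 50 and every replicate individually at or above 50; inconclusive = only one of the two criteria met; inactive = mean below 50 and not all replicates reaching 50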;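 also: 0% = plate neutral controls and 100% = maraviroc near 300 nM; one replicate is shown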
Numbers without * were called inactive; ? = inconclusive; [ ] = another dose, or the depositor's remark.

Sample of the layout:
SMILES	UUG fidelity	HIV Env fusion
Cc1ccc(S(=O)(=O)N(C)C[C@H]2OCCCC[C@@H](C)Oc3ccc(NC(=O)Cc4ccccc4)cc3C(=O)N([C@@H](C)CO)C[C@H]2C)cc1	-9	-31[16.7 µM]
C[C@H](CO)N1C[C@H](C)[C@H](CN(C)Cc2ccc(C(=O)O)cc2)Oc2c(NC(=O)C3CC3)cccc2C1=O	-29	-1[16.7 µM]

The list itself, from the start:
SMILES	UUG fidelity	HIV Env fusion
Cc1ccc(S(=O)(=O)N(C)C[C@H]2OCCCC[C@@H](C)Oc3ccc(NC(=O)Cc4ccccc4)cc3C(=O)N([C@@H](C)CO)C[C@H]2C)cc1	-9	-31[16.7 µM]
C[C@H](CO)N1C[C@H](C)[C@H](CN(C)Cc2ccc(C(=O)O)cc2)Oc2c(NC(=O)C3CC3)cccc2C1=O	-29	-1[16.7 µM]
C[C@@H]1CN([C@@H](C)CO)C(=O)c2cc(-c3cccnc3)cnc2O[C@H]1CN(C)C(=O)c1ccccc1F	166*	-30[16.7 µM]
C[C@@H]1CN([C@H](C)CO)S(=O)(=O)c2ccc(-c3ccccc3)cc2O[C@@H]1CN(C)C	-4	2[16.7 µM]
C[C@H]1CN([C@@H](C)CO)C(=O)c2cc(NC(=O)CCC(F)(F)F)ccc2O[C@H]1CN(C)Cc1ccccc1	3	-4[16.7 µM]
Cc1noc(C)c1S(=O)(=O)N(C)C[C@H]1OCCCC[C@H](C)Oc2ccc(N(C)C)cc2C(=O)N([C@H](C)CO)C[C@@H]1C	11	-19[16.7 µM]
C[C@H]1CN([C@@H](C)CO)C(=O)Cc2cc(NS(=O)(=O)c3cccs3)ccc2O[C@H]1CN(C)Cc1ccccc1	-15	7[16.7 µM]
COc1ccc(CN(C)C[C@@H]2Oc3ccc(NC(=O)Nc4ccc(OC)cc4)cc3C(=O)N([C@H](C)CO)C[C@H]2C)cc1	6	-20[16.7 µM]
C[C@@H]1CN([C@@H](C)CO)C(=O)c2cc(NC(=O)Cc3ccccc3)ccc2O[C@@H](C)CCCCO[C@H]1CN(C)S(=O)(=O)c1cccs1	-10	0[16.7 µM]
C[C@H](CO)N1C[C@H](C)[C@@H](CN(C)C(=O)c2cccc(F)c2)Oc2cc(-c3cccnc3)ccc2S1(=O)=O	1	8[16.7 µM]

4 records picked at random from the list so far, as already listed:
SMILES	UUG fidelity	HIV Env fusion
C[C@H]1CN([C@@H](C)CO)C(=O)Cc2cc(NS(=O)(=O)c3cccs3)ccc2O[C@H]1CN(C)Cc1ccccc1	-15	7[16.7 µM]
C[C@H]1CN([C@@H](C)CO)C(=O)c2cc(NC(=O)CCC(F)(F)F)ccc2O[C@H]1CN(C)Cc1ccccc1	3	-4[16.7 µM]
C[C@@H]1CN([C@@H](C)CO)C(=O)c2cc(-c3cccnc3)cnc2O[C@H]1CN(C)C(=O)c1ccccc1F	166*	-30[16.7 µM]
COc1ccc(CN(C)C[C@@H]2Oc3ccc(NC(=O)Nc4ccc(OC)cc4)cc3C(=O)N([C@H](C)CO)C[C@H]2C)cc1	6	-20[16.7 µM]

(cont.)
SMILES	UUG fidelity	HIV Env fusion
C[C@@H]1CCCCO[C@@H](CN(C)CC2CC2)[C@@H](C)CN([C@H](C)CO)C(=O)c2cc(NC(=O)Nc3ccc(C(F)(F)F)cc3)ccc2O1	31	14[16.7 µM]
C[C@H](CO)N1C[C@H](C)[C@@H](CN(C)Cc2ccc3c(c2)OCO3)Oc2ccc(NC(=O)C3CC3)cc2CC1=O	-8	-2[16.7 µM]
C[C@H]1CN([C@@H](C)CO)S(=O)(=O)c2ccc(-c3ccc(F)cc3)cc2O[C@H]1CN(C)C	-11	-6[16.7 µM]
CCCc1cn(CC[C@H]2CC[C@H](NC(=O)Cc3cccnc3)[C@@H](CO)O2)nn1	-18	-14[16.7 µM]
CNC(=O)C[C@H]1CC[C@H]2[C@H](COc3ccc(NC(=O)Nc4ccccc4)cc3C(=O)N2C)O1	11	-3[16.7 µM]
C[C@@H]1CN([C@H](C)CO)S(=O)(=O)c2ccc(C#CC3CC3)cc2O[C@@H]1CN(C)C(=O)c1ccccc1	7	14[16.7 µM]
C[C@H](CO)N1C[C@H](C)[C@H](CN(C)S(=O)(=O)c2ccccc2)OCCCC[C@H](C)Oc2ccc(NS(=O)(=O)c3ccccc3)cc2C1=O	-3	-47[16.7 µM]
C[C@@H]1CN([C@H](C)CO)C(=O)c2cc(C#CC3CCCCC3)cnc2O[C@H]1CN(C)Cc1cncnc1	8	12[16.7 µM]
CC(=O)N(C)C[C@@H]1Oc2cc(C#C[C@H](C)O)ccc2S(=O)(=O)N([C@H](C)CO)C[C@@H]1C	-5	-2[16.7 µM]
C[C@@H]1CN([C@H](C)CO)S(=O)(=O)c2ccc(-c3ccccc3)cc2O[C@H]1CN(C)C(=O)Nc1ccccc1F	15	12[16.7 µM]
CCC(=O)N[C@H]1CC[C@H](CCn2cc(-c3cccc(OC)c3)nn2)O[C@H]1CO	-4	18[16.7 µM]
C[C@H]1CN([C@@H](C)CO)S(=O)(=O)c2ccc(C3=CCCC3)cc2O[C@H]1CN(C)S(=O)(=O)c1ccc(F)cc1	-15	24[16.7 µM]
COc1ccc(NC(=O)N(C)C[C@@H]2OCCCC[C@H](C)Oc3ccc(NC(=O)NC4CCCCC4)cc3C(=O)N([C@@H](C)CO)C[C@@H]2C)cc1	-11	-40[16.7 µM]
Cc1ccccc1S(=O)(=O)N[C@@H]1CC[C@H](CCn2cc(Cc3ccccc3)nn2)O[C@H]1CO	-7	13[16.7 µM]
COc1ccc(CN(C)C[C@@H]2Oc3ccc(NC(=O)Nc4cccc5ccccc45)cc3C(=O)N([C@@H](C)CO)C[C@H]2C)cc1	-10	-6[16.7 µM]
CC(C)NC(=O)N[C@@H]1CC[C@@H](CCNS(=O)(=O)c2ccc(Cl)cc2)O[C@H]1CO	11	-28[16.7 µM]
C[C@H](CO)N1C[C@H](C)[C@@H](CN(C)C(=O)NC2CCCCC2)Oc2ccc(NC(=O)Cc3cn(C)c4ccccc34)cc2C1=O	-2	0[16.7 µM]
Cc1ccc(S(=O)(=O)Nc2ccc3c(c2)C(=O)N([C@H](C)CO)C[C@@H](C)[C@@H](CN(C)Cc2ccc(C(=O)O)cc2)OCCCC[C@@H](C)O3)cc1	3	-1[16.7 µM]
CNC[C@H]1Oc2ncc(C#CC3(O)CCCC3)cc2C(=O)N([C@@H](C)CO)C[C@H]1C	9	-16[16.7 µM]
C[C@H](CO)N1C[C@H](C)[C@H](CN(C)Cc2ccccc2)Oc2c(NC(=O)c3cnccn3)cccc2C1=O	14	29[16.7 µM]
Cc1ccc(S(=O)(=O)Nc2ccc3c(c2)C(=O)N([C@H](C)CO)C[C@H](C)[C@@H](CN(C)S(=O)(=O)c2cccs2)OCCCC[C@@H](C)O3)cc1	-7	-15[16.7 µM]
Cc1noc(C)c1NC(=O)N(C)C[C@H]1OCCCC[C@@H](C)Oc2ccc(NC(=O)NC(C)C)cc2C(=O)N([C@H](C)CO)C[C@@H]1C	10	-8[16.7 µM]
C[C@@H]1CN([C@@H](C)CO)C(=O)Cc2cc(NC(=O)Cn3cnnn3)ccc2O[C@H]1CN(C)C	-5	5[16.7 µM]
C[C@@H]1CN([C@@H](C)CO)C(=O)c2cc(NS(=O)(=O)c3ccc(Cl)cc3)ccc2O[C@@H](C)CCCCO[C@H]1CN(C)Cc1ccc2c(c1)OCO2	5	-58[16.7 µM]
CCCC#Cc1ccc2c(c1)O[C@@H](CN(C)C(=O)CC)[C@H](C)CN([C@H](C)CO)S2(=O)=O	10	-7[16.7 µM]
CCCC#Cc1cnc2c(c1)C(=O)N([C@H](C)CO)C[C@@H](C)[C@H](CN(C)C(=O)c1cccc(F)c1)O2	-3	20[16.7 µM]
COc1ccc(C(=O)Nc2ccc3c(c2)OC[C@H](C)NC[C@@H](C)[C@H](OC)CN(C)C3=O)cc1	-9	19[16.7 µM]
C[C@H]1CN([C@@H](C)CO)C(=O)c2cc(N(C)C)ccc2O[C@@H]1CN(C)Cc1ccc(C(F)(F)F)cc1	-7	?
O=C(N[C@@H]1CC[C@@H](CCn2cc(C3(O)CCCC3)nn2)O[C@H]1CO)C1CCOCC1	-12	6[16.7 µM]
COc1ccccc1CNC(=O)C[C@@H]1C=C[C@@H](NC(C)=O)[C@@H](CO)O1	-14	-5[16.7 µM]
CO[C@@H]1CN(C)C(=O)c2cc(NC(C)=O)ccc2OC[C@H](C)N(C(=O)c2cccnc2)C[C@H]1C	-4	-2[16.7 µM]
O=C(C[C@@H]1C=C[C@@H](NC(=O)C2CCC2)[C@H](CO)O1)NCC1CC1	-5	-32[16.7 µM]
COCC#Cc1ccc2c(c1)O[C@H](CN(C)C(=O)COC)[C@H](C)CN([C@H](C)CO)S2(=O)=O	4	-14[16.7 µM]
CCS(=O)(=O)Nc1ccc2c(c1)C(=O)N(C)C[C@@H](OC)[C@@H](C)CN[C@@H](C)CO2	-26	-3[16.7 µM]
C[C@H]1CCCCO[C@H](CN(C)C(=O)Cc2ccccc2)[C@@H](C)CN([C@@H](C)CO)C(=O)c2cc(NS(=O)(=O)c3cccs3)ccc2O1	4	19[16.7 µM]
Cc1noc(C)c1S(=O)(=O)Nc1ccc2c(c1)C(=O)N([C@H](C)CO)C[C@@H](C)[C@H](CN(C)S(=O)(=O)c1c(C)noc1C)OCCCC[C@@H](C)O2	3	-29[16.7 µM]
CNC[C@@H]1Oc2c(NC(=O)c3nc4ccccc4s3)cccc2C(=O)N([C@@H](C)CO)C[C@H]1C	4	8[16.7 µM]
Cc1noc(C)c1S(=O)(=O)N(C)C[C@H]1Oc2ccc(NC(=O)NC3CCCCC3)cc2CC(=O)N([C@H](C)CO)C[C@@H]1C	15	2[16.7 µM]
COc1ccc(S(=O)(=O)Nc2ccc3c(c2)C(=O)N([C@@H](C)CO)C[C@H](C)[C@@H](CN(C)CC2CC2)OCCCC[C@H](C)O3)cc1	9	-5[16.7 µM]
COc1ccc(NC(=O)N[C@H]2CC[C@@H](CCNS(=O)(=O)c3ccccc3F)O[C@@H]2CO)cc1	-5	11[16.7 µM]
C[C@H](CO)N1C[C@H](C)[C@H](CN(C)Cc2ccc3c(c2)OCO3)Oc2ccc(NC(=O)Nc3ccc(C(F)(F)F)cc3)cc2C1=O	-8	14[16.7 µM]
CCC(=O)Nc1ccc2c(c1)OC[C@H](C)N(Cc1ccccc1C(=O)O)C[C@@H](C)[C@H](OC)CN(C)C2=O	-3	-8[16.7 µM]
COCC(=O)Nc1ccc2c(c1)[C@@H]1C[C@H](CC(=O)NCCN3CCCCC3)O[C@@H](CO)[C@@H]1O2	19	16[16.7 µM]
C/C=C/c1cnc2c(c1)C(=O)N([C@@H](C)CO)C[C@@H](C)[C@@H](CN(C)C(=O)Nc1ccc(C(F)(F)F)cc1)O2	9	18[16.7 µM]
O=C(N[C@@H]1C=C[C@H](CC(=O)N2CCN(c3ccccc3)CC2)O[C@H]1CO)c1ccccc1	-1	10[16.7 µM]
C[C@H]1CN([C@@H](C)CO)C(=O)c2cc(C#CC3CCCCC3)cnc2O[C@@H]1CN(C)C(=O)Nc1ccccc1	34	11[16.7 µM]
CO[C@@H]1CN(C)C(=O)c2cc(NC(=O)C3CCOCC3)ccc2OC[C@@H](C)NC[C@H]1C	15	7[16.7 µM]
C[C@H]1CN([C@@H](C)CO)C(=O)Cc2cc(NC(=O)Nc3ccccc3)ccc2O[C@H]1CN(C)S(=O)(=O)c1ccc(F)cc1	4	17[16.7 µM]
CO[C@H]1CN(C)C(=O)c2cc(NC(C)=O)ccc2OC[C@H](C)N(Cc2cncnc2)C[C@H]1C	2	1[16.7 µM]
O=C(N[C@H]1CC[C@@H](CC(=O)N2CCCCC2)O[C@H]1CO)c1cccc(F)c1	-11	-31[16.7 µM]

Other structures
SMILES	UUG fidelity	HIV Env fusion
C[C@H]1CN([C@@H](C)CO)C(=O)Cc2cc(NC(=O)Nc3ccc(C(F)(F)F)cc3)ccc2O[C@H]1CN(C)CC1CCCCC1	3	3[16.7 µM]
C[C@@H]1CCCCO[C@@H](CN(C)C(=O)Nc2ccc(F)cc2)[C@H](C)CN([C@H](C)CO)C(=O)c2cc(NC(=O)CCC(F)(F)F)ccc2O1	8	6[16.7 µM]
COC(=O)C[C@@H]1CC[C@H]2[C@H](COc3ccc(NC(=O)c4ccc(F)cc4)cc3C(=O)N2C)O1	-4	8[16.7 µM]
C[C@@H]1CN([C@@H](C)CO)C(=O)c2cc(NC(=O)NC3CCCCC3)ccc2O[C@@H](C)CCCCO[C@H]1CN(C)Cc1ccncc1	26	8[16.7 µM]
COc1cccc(S(=O)(=O)Nc2ccc3c(c2)C(=O)N(C)[C@@H]2CC[C@@H](CC(=O)O)O[C@H]2CO3)c1	8	-28[16.7 µM]
COCC(=O)N1[C@H](CO)[C@@H](c2ccccc2)[C@@H]1C#N	-8	-31[16.7 µM]
CNC(=O)C[C@@H]1CC[C@@H]2[C@H](COc3ccc(NC(=O)Cc4cccs4)cc3C(=O)N2C)O1	2	-13[16.7 µM]
O=C(C[C@@H]1C[C@H]2c3cc(NC(=O)c4ccc5c(c4)OCO5)ccc3O[C@H]2[C@@H](CO)O1)NCc1cccc(F)c1	-10	-13[16.7 µM]
O=C(C[C@H]1CC[C@@H]2[C@H](COC[C@@H](O)CN2Cc2cc(F)ccc2F)O1)NCc1ccc(Cl)cc1	1	0[16.7 µM]

Records listed so far printed as active in UUG fidelity:
SMILES	UUG fidelity	HIV Env fusion
C[C@@H]1CN([C@@H](C)CO)C(=O)c2cc(-c3cccnc3)cnc2O[C@H]1CN(C)C(=O)c1ccccc1F	166*	-30[16.7 µM]

An excerpt; the hit share may differ from the screen's.
